High-throughput results: PubChem, National Center for Advancing Translational Sciences (NCATS)
D2 ag – agonists of human D2 dopamine receptor (beta-arrestin); DiscoveRx PathHunter D2 beta-arrestin, luminescence, 90 min; 100% = 57 uM dopamine signal; 360,000 compounds, 0.084% hits; activation, % (no concentration beside the values); in the data active = activation above about 40%; inconclusive = about 15% to 40%; inactive = below about 15%; note: compound concentration not given in the record; the text of the record calls up to 30% inactive
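DiscoveRx PathHunter D2 beta-arrestin cells (2,100/well) attached overnight, then compound-stimulated 90 min at 37 C in HBSS/10 mM HEPES/0.1% Tween-20 buffer; beta-galactosidase complementation read by luminescence after 1 h at ambient temperature. Dopamine 57 uM final (EC100) as control.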
CtBP-E1A blk – blocks the CtBP interaction with E1A | AlphaScreen GST-E1A/His-CtBP binding, 1536-well; stronger effect = lower value; control for the full effect not named in the record | activity change, % (no concentration beside the values) | 340,000 compounds, 0.49% hits; in the data active means activity change below about -65%; inconclusive means about -30% to -65%; inactive means above about -30%; note: % is set by controls: 0 for no effect and ±100 for the full control effect
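Steps: dispense buffer (Tris pH 8.0, NaCl 300 mM, TCEP 1 mM, BSA, Tween 20); add 5X protein mix (GST-E1A, His-CtBP, 125 nM each); pin 23 nL compound; 2 h at 37 °C, dark; add 5X beads (50 ug/mL); 1 h; read.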
TRPML1 agonist – human mucolipin-1 channel agonism | activation, % (no concentration beside the values) | Q9GZU1 | 410,000 compounds, 0.12% hits | TRPML1-expressing cells, Ca2+ dye fluorescence, FDSS; host cell line not named in the record; reference of the full effect not given here | AID 624414; in the data active = activation above about 50%; inconclusive = about 30% to 50%; inactive = below about 30%; note: 0% is about no effect; the text of the record puts the active cut at 80%
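Kinetic FDSS Ca2+ read in Tet-induced TRPML1-DL cells (ABD Ca8 dye plus quencher, 45-90 min RT loading): baseline, then compound, then 110 s agonist window; EC80 agonist 54-4 at 4uM final added afterwards for a 110 s antagonist window.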
Six1-Eya2 blk – blocks human Six1 binding to Eya2 | AlphaScreen GST-Six1/His-Eya2 binding, biochemical; stronger effect = lower value; control for the full effect not named in the record | AID 651725 | Q15475+O00167 | 360,000 compounds, 0.56% hits | activity change, % (test concentration not listed); in the data active = activity change below about -65%; inconclusive = about -30% to -65%; inactive = above about -30%; note: % is set by controls: 0 for no effect and ±100 for the full control effect
Target sequence (O00167 whole entry, looked up): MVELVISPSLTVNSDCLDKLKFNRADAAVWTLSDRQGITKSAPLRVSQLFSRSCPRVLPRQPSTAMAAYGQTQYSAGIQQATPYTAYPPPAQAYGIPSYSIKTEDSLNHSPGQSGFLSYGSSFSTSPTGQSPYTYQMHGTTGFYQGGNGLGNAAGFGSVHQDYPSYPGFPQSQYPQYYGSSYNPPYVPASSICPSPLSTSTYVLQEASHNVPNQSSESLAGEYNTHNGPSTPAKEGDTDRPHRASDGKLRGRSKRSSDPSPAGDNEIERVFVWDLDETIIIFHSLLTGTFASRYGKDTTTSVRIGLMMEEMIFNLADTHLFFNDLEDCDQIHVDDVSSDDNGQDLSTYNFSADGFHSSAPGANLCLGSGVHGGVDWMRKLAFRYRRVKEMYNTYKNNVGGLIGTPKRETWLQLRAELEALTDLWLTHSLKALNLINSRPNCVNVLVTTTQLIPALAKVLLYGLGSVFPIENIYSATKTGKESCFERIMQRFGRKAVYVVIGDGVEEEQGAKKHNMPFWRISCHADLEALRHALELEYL
Target sequence (Q15475 whole entry, looked up): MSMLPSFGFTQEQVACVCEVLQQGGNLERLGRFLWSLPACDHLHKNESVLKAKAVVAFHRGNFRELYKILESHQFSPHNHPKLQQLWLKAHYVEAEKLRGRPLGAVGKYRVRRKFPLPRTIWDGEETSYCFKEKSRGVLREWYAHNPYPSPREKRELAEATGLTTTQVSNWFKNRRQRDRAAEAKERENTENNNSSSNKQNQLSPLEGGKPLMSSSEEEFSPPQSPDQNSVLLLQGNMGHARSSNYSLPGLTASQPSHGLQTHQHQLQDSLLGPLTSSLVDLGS
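AlphaScreen with GST-Six1 and His-Eya2 (5X mix: 250 nM and 500 nM), glutathione donor and nickel acceptor beads; buffer 50 mM Tris pH 8.0, 300 mM NaCl, 1 mM TCEP; 1 h at 37 C in the dark.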
PINK1 expr mod – modulators of PINK1 expression; PINK1 immunofluorescence, high-content cytometry, 24 h; Potency, µM (top dose mostly 76.6 µM), without a hit: top-dose activation (PINK1 increase), most hits filed as activators; 410,000 compounds, 0.2% hits; AID 624263; active = well fitted activation curve with a large enough effect; inconclusive = small, poorly fitted or top-dose-only effect; inactive = flat fitted curve, though single readings scatter; cell line not stated here;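 note: potency is the fitted concentration of half-maximal effect; % of control where 0% means no effect; nearly all actives have a fitted effect of over 65% in size; a mitochondrial uncoupler was the plate control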
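Cells are seeded, rested 12 hours, then given compound at five concentrations or DMSO for 24 hours. After fixation, blocking and antibody staining, PINK1 amount and mitochondrial localization are scored; CCCP serves as control.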
TRPML1 blocker – inhibitors of human TRPML1 channel. TRPML1-inducible cells, Ca2+ dye fluorescence, FDSS; stronger effect = lower value; inhibition of EC80 agonist-evoked calcium signal. activity change, negative = inhibition, % (test concentration not listed). 390,000 compounds, 0.02% hits; in the data active means activity change below about -50%; inconclusive means about -30% to -50%; inactive means above about -30%;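 note: stimulus is agonist 54-4 at its EC80 concentration; % is set by controls: 0 for no effect and ±100 for the full control effect; compound concentration not given in the record; the text of the record puts the active cut at -80%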
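Calcium fluorescence in TRPML1-DL cells induced overnight with Tet: a 110 s read after compound pin addition, then a 110 s antagonist read after challenge with 54-4 at 4 uM final (EC80).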
The depositor's hits bear a star; ? = inconclusive; . = no result given; [ ] = another dose, or the depositor's remark.

Under each structure – D2 ag	CtBP-E1A blk	TRPML1 agonist	Six1-Eya2 blk	PINK1 expr mod	TRPML1 blocker
- O=C(NC1CCCCC1)c1[nH]c(C(F)(F)F)nc1-c1ccccc1
    -0.4	2	0.0	-16	3.2%	.
- Cc1ccccc1CSc1nc2c(c(=O)[nH]1)CCC2
    1.0	5	1.8	-1	-0.8%[38.3 µM]	-4
- Cc1ccc(N(CC(=O)NCC2CCCO2)C(=O)CCC(=O)Nc2nccs2)cc1C (configuration not stated)
    -2.6	6	0.7	0	-0.1%	-19
- Cc1cc(C(=O)N2CCCC(Nc3ccc(C)c(C)c3)C2)nc(C)n1 (configuration not stated)
    -2.1	6	0.1	1	1.4%	6
- Cc1ccc(S(=O)(=O)N2CCOCC2)cc1NC(=O)COC(=O)COc1cccc2c1OC(C)(C)C2
    -0.3	4	0.8	4	-0.1%	12
- COc1cc2ccccc2cc1C(=O)Nc1ccc(NC(=O)c2cccs2)cc1
    5.9	-2	1.4	0	8.8%	9
- Cc1ccc(Nc2nc(NCCO)nc3c2cnn3C)cc1Cl
    -2.3	.	3.0	?	1.5%	-18
- O=C(N/N=C1\CCCc2ccccc21)c1ccc([N+](=O)[O-])cc1
    0.3	5	-0.5	2	3.0%[38.3 µM]	-4
- OC(Cn1cncn1)c1ccc(Cl)cc1 (configuration not stated)
    -3.3	5	1.8	3	4.8%[38.3 µM]	0
- CCC(CC)C(=O)Nc1ccccc1NC(C)=O
    -0.7	1	-0.1	6	-0.6%	-4
- CCn1c2ccccc2c2cc(NC(=O)COC(=O)c3ccc(O)cc3)ccc21
    4.6	1	1.1	-4	0.2%	0
- Cc1ccc(-c2csc(NC(=O)c3ccc(C)o3)n2)cc1
    -0.1	-8	0.8	-1	9.8%	-10
- CSc1nc2c(c(=O)n1-c1ccc(F)cc1)SCC2
    -4.0	7	-0.5	-1	.	?
- O=[N+]([O-])c1ccc2c3n([n+]([O-])c2c1)CCN=C3c1ccc(Cl)cc1
    2.5	.	-0.2	-12	-0.5%	26
- Cc1ccccc1OCC(=O)Nc1cccc(NC(=O)c2ccco2)c1
    -3.1	-2	1.2	-2	-1.7%	7
- CCOc1nc(-c2ccccc2)ccc1-c1noc(COc2ccccc2)n1
    -3.2	43	1.3	44	-1.2%	3
- Cc1noc(C)c1NC(=O)N(C)C[C@H]1Oc2c(NC(=O)Cc3ccccc3)cccc2C(=O)N([C@H](C)CO)C[C@@H]1C
    -2.5	-24	0.3	-2	1.2%	0
- CCCc1nc2ccccc2c(=O)n1-c1c(C)n(C)n(-c2ccccc2)c1=O
    -2.8	0	-0.5	-4	0.1%	-17
- Cc1ccc(NC(=O)CSc2cn[nH]n2)cc1
    1.9	2	0.0	7	0.0%	56
- Cc1ccc2nc(NCc3ccccc3)c(C#N)cc2c1
    -3.1	38	3.2	54	3.6%	15
- NC(=NC(=O)c1ccc(OCC(F)(F)F)nc1)c1ccccc1
    -4.2	.	-0.5	7	10%	-1
- CCC(=O)c1cc2c(cc1NC(=O)c1ccccc1)OCCO2
    -0.3	10	-0.5	4	7.4%[38.3 µM]	-1
- Cc1ccc(Cn2nnnc2CN2CCC(O)(c3ccc(F)cc3)CC2)cc1
    0.9	4	0.6	0	.	-7
- CSCCC1NC2(C(=O)Nc3c(C)cc(Cl)cc32)[C@@H]2C(=O)N(C3CCCC3)C(=O)[C@H]12 (some centres not stated)
    2.3	-16	-1.0	-11	2.3%	-10
- CCOC(=O)C1CCCN(C(=O)c2cncc(Br)c2)CC1 (configuration not stated)
    -1.3	2	-0.2	2	0.5%	.
- CCOc1ccc(-c2cc3nc(C4CCN(C(=O)OC(C)(C)C)CC4)c(C(=O)Nc4ccc(C)cc4C)cn3n2)cc1
    .	.	1.1	.	0.6%	8
- Cc1ccc(CCNS(=O)(=O)c2cc(-c3cc(C)no3)ccc2C)cc1
    .	.	1.6	.	-0.8%	-5
- CCNC(=O)CSc1nc2sccc2c(=O)n1-c1ccccc1
    -3.5	-1	.	-4	1.2%	.
- CC(C)[C@H](NC(=O)c1ccccc1)C(=O)OCC(=O)N1CC2(C)CC1CC(C)(C)C2 (some centres not stated)
    -4.5	-16	-0.6	0	0.1%	-13
- Cc1nc2sc3c(c2c(=O)[nH]1)CCCCC3
    -1.9	6	0.8	0	1.5%	-12
- COc1ccccc1-c1nnc(SCC(=O)OC(C)C)o1
    -0.8	3	-0.1	1	-6.5%[38.3 µM]	33
- Cc1ccc(C(=O)N2CCN(c3ccc(N4CCOCC4)nn3)CC2)cc1C
    -0.2	-9	0.8	1	1.5%	22
- O=C(COC(=O)c1ccc(Br)o1)Nc1ccc(N2CCOCC2)cc1
    -1.9	1	1.2	0	1.2%	-10
- COc1cccc2cc(C(C)N(CCCN3CCOCC3)C(=S)Nc3cc(C)cc(C)c3)oc12 (configuration not stated)
    -4.4	-16	-0.7	-14	-2.2%	57
- Cc1onc(-c2ccccc2Cl)c1C(=O)NCc1ccco1
    5.7	16	-0.1	-14	-2.5%[38.3 µM]	12
- O=C(NCc1ccccc1)Oc1cccc(Cl)c1
    -1.6	-9	-0.2	-12	3.4%	22
- COc1cccc2cc(-c3n[nH]c(=S)n3C)oc12
    1.1	4	-1.0	-1	0.5%	-12
- O=S(=O)(c1ccc(F)cc1)N1CCN(c2nc(-c3cccs3)nc3cc(Cl)ccc23)CC1
    .	.	1.2	.	-0.3%	-5
- CCOC(=O)C1CCN(S(=O)(=O)c2cccc(C(=O)Nc3ccccc3)c2)CC1
    -1.4	-1	2.9	0	-1.5%	-7
- N#Cc1ccc(C(=O)Nc2cc(S(=O)(=O)N3CCOCC3)ccc2N2CCOCC2)cc1
    -1.1	8	0.2	2	2.9%	-6
- C=CCn1c(NCc2ccc(OC)cc2)nc2ccccc21
    -5.4	5	0.3	1	-0.1%	0
- O=C(CCN1C(=O)/C(=C\c2ccccc2)SC1=S)Nc1ccc(C(=O)O)cc1
    -5.1	-20	2.0	1	1.8%	-10
- O=C(NC1CCCCC1)C1c2ccccc2OCC(=O)N1CC(F)(F)F (configuration not stated)
    .	4	0.5	3	-0.5%	.
- Cc1ccc(NC(=O)Nc2c(C)n(C)n(-c3ccccc3)c2=O)cc1C
    -2.1	-12	-0.4	3	-0.9%	3
- O=C(CSc1nnc2ccccn12)NCCN1C(=O)CSC1=O
    -3.0	2	-0.9	-1	1.8%	2
- Cc1cnc(NC(=O)CSc2nnc(C)n2N)s1
    -2.5	17	0.3	-5	1.5%	2
- O=C(Nc1cccc(C(=O)N2CCOCC2)c1)c1ccccc1Cl
    2.6	19	0.7	7	5.7%	43
- CC(C)CCNC(=O)NC(=O)COC(=O)c1cc(S(=O)(=O)N2CCOCC2)ccc1N1CCCCC1
    -2.5	-3	0.3	-1	0.5%	5
- COc1cc(C(=O)OCC(=O)Nc2ccc(F)cc2F)cc(OC)c1OC
    -3.3	6	-0.1	0	.	-7
- CCNc1ncnc2[nH]ncc12
    -4.5	4	-0.3	-1	-2.4%	3
- O=C(CSc1c2c(nc3ccccc13)CCC2)Nc1ccc(F)cc1
    .	.	1.9	.	8.2%	-10
- CCCCCCC(=O)N1CCC(c2nc3c(nnn3Cc3ccccc3Cl)c(=O)[nH]2)CC1
    -0.8	0	2.5	-7	9.3%[38.3 µM]	36
- COc1cc(S(=O)(=O)Nc2cccc3cn[nH]c23)c(OC)cc1C
    3.2	14	-0.1	15	-0.7%	-9
- COc1ccccc1N1CCN(CCN2C(=O)C3CCCN3C2=O)CC1 (configuration not stated)
    -2.9	3	0.0	6	-0.2%	-3
- COC(=O)N=Nc1c(O)[nH]c2ccc(Br)cc12
    -4.7	-12	-0.8	-18	1.5%	-11
- CC(C)N(C(=O)[C@H]1CC(CC(=O)NC(C)(C)C)C(=O)N2CCc3c([nH]c4ccccc34)[C@]12C)C(C)C (some centres not stated)
    -0.5	-12	0.0	-1	0.0%	2
- COCCn1c(SCc2ccccc2)nc2c1c(=O)[nH]c(=O)n2C
    -2.8	0	-0.1	-10	2.5%	-7
- Cc1c(NC(=O)OCCNC(=O)COc2c(Cl)cccc2Cl)sc(=S)n1C
    -0.1	-6	0.6	-10	3.7%	4
- O=C(OCc1ccccc1)c1cccc(-c2nnc(-c3ccccc3)o2)c1
    0.0	10	2.6	11	-1.5%[38.3 µM]	-5
- COc1cccc(CNC(=O)CSC2=Nc3ccccc3C3=NC(C(C)C)C(=O)N23)c1 (configuration not stated)
    .	.	-0.4	.	0.7%	-2

Next part:
Under each structure – D2 ag	CtBP-E1A blk	TRPML1 agonist	Six1-Eya2 blk	PINK1 expr mod	TRPML1 blocker
- CCN(CC)S(=O)(=O)c1cccc(NC(=O)COC(=O)/C=C/c2cccs2)c1
    3.4	-22	2.7	-11	4.0%	46
- O=C(NC(c1ccccc1)c1ccccc1)c1ccc(CO)cc1
    -2.2	4	-0.2	7	0.8%	2
- Cc1ccc2c(c1)-c1c(cnn1CC(=O)N(Cc1ccco1)C1CCCCC1)CO2
    -1.9	0	1.5	-16	4.8%	11
- Cc1ccc(S(=O)(=O)N2CCN(C(=O)COC(=O)c3cc([N+](=O)[O-])ccc3NCCO)CC2)c(C)c1
    -0.9	.	0.0	-1	0.9%	-7
- COc1ccc(-c2nc3sc(CCNC(=O)c4ccc(Br)o4)c(C)n3n2)cc1
    .	.	-0.2	.	0.0%	-9
- CC(=O)Nc1ccc(C(=O)OCC(=O)Nc2c(F)cccc2F)cc1
    0.5	4	1.5	4	3.5%	-9
- COc1cc(OC)c(C(=O)N(Cc2ccco2)Cc2cccs2)cc1OC
    .	.	2.2	.	-0.8%	7
- CCC(C(=O)Nc1ccc(C(C)=O)cc1)n1cnc2nc3c(cc2c1=O)CCCC3 (configuration not stated)
    .	.	-1.0	.	-1.3%	19
- Cc1ccc(CNC(=O)c2nc(SCc3ccc(C)cc3)ncc2Cl)cc1
    .	.	9.0	.	-0.4%	-8
- Cc1ccc(CNc2ncccc2-c2nc(-c3ccc(Cl)cc3)no2)cc1
    .	.	-0.8	.	1.8%	-12
- COc1cc(/C=N/NC(=O)c2nnn(-c3nonc3N)c2C(C)C)ccc1OCc1ccccc1
    3.3	.	1.1	-5	0.6%	7
- O=C(Nc1ccc2c(c1)OCCO2)C1CCCN(S(=O)(=O)c2cccc3nsnc23)C1 (configuration not stated)
    -0.6	2	0.3	-5	-1.4%[38.3 µM]	-8
